# AID504770 = growth inhibition of E. coli YBA685, primary screen, V. cholerae RctB inhibitors; z-score (no concentration beside the values); actives 0.27% (n = 130,000); E. coli YBA685 rctB-dependent plasmid, OD600 growth, 3 h; hits give low values;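 active means z-score under -2 on both plates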;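 further: wells of about 30 µL received 100 nL stock; score is relative to mean and SD of the test wells; the first replicate is given; strong numbers were not always called active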
# Ba CapD inh = Bacillus anthracis CapD inhibitors, primary screen, biochemical, fluorescence intensity; CapD gamma-glutamyltranspeptidase (Bacillus anthracis Ames Ancestor); purified CapD enzyme, fluorescence intensity read-out; hits give low values; some hits fall short of the stated cut; z-score (no concentration beside the values); actives 0.23% (n = 140,000);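 active means z-score under -4 in either of two replicates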;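 further: stock transfer was 100 nL into about 40 µL; score is relative to mean and spread of the plate; one replicate is shown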
# Active calls of the source: *; i = inactive; . = not tested or not shown.
SMILES,AID504770,Ba CapD inh
O=C(c1ccc(F)cc1)N1N=C(c2c(-c3ccccc3)c3cc(Cl)ccc3[nH]c2=O)CC1c1ccco1 (stereo not drawn),.,0.02
CN(C)c1ncnc(Cl)c1N,-0.45,.
CCCCn1c(SCC(=O)Nc2ccccc2OC)nc2ccsc2c1=O,-0.75,-0.39
CSc1nc(-c2cccs2)c(C#N)c(=O)n1C,.,0.99
c1ccc(CCNC2=NCCS2)cc1,-0.6,-0.305
Cn1c(C(=O)NC2CCCC2)cc2c(=O)n(C)c3ccccc3c21,-0.8,0.265
Cn1nc(-c2ccccc2)c(CO)c1Sc1cccc(C(F)(F)F)c1,.,-0.105
CCc1ccc2[nH]c(=O)c(CN(Cc3ccco3)C(=S)NCC(C)C)cc2c1,1.25,.
Cc1ccc(CNC(=O)c2c[nH]n3c(=O)cc(CSc4ccc(Cl)cc4)nc23)cc1,-0.45,0.5
O=C(O)CNC(=S)N(Cc1ccco1)Cc1ccccc1Cl,1.5,0.565
CCOC(CN(C(=O)c1ccc(F)cc1)c1ccc(F)cc1)OCC,.,-0.695
CCOC(=O)c1c(C=O)oc2c(C)cc(OC(=O)c3ccc([N+](=O)[O-])cc3Cl)c(Br)c12,.,0.235
COC(=O)c1ccc(C2C3=C(CC(C)(C)CC3=O)NC3=C2C(=O)CC(C)(C)C3)cc1,.,11.9
CS(=O)(=O)c1cc(C#N)c(N2CCN(C(=O)Nc3cccc(C(F)(F)F)c3)CC2)nc1-c1ccc(Cl)cc1,.,0.29
N#Cc1ccccc1Cn1c(=O)n(-c2ccccc2)c(=O)c2ccc(C(=O)NCc3ccco3)cc21,-0.1,0.575
CC(C)(C)NNC(=O)c1ccccc1N,.,22.6
COc1ccc(S(=O)(=O)N2CN3CCN(C3)C2)cc1OC,0.6,-0.795
N=C1SC2CS(=O)(=O)CC2N1c1cccc(C(F)(F)F)c1 (stereo not drawn),0.55,-0.1
N#C/C(=C\NC1CCCCC1)S(=O)(=O)c1ccc(Cl)cc1,-0.9,-0.215
CCC1CCCCN1C(=O)c1ccccc1F (stereo not drawn),-0.75,.
C=CCSc1nnc2n1CCCN2C(=O)Nc1cccc(Cl)c1,0.8,0.965
CSC(=N\N=C(/C)c1ccc(Br)cc1)/N=C/N(C)C,.,0.005
Cc1csc2ncnc(N3CCN(C(=S)NCC4CC4)CC3)c12,-0.65,0.67
O=C(CSc1nnc(-c2ccco2)c(-c2ccco2)n1)N1c2ccccc2Sc2ccc(Cl)cc21,-0.75,.
O=C(N1CCN(c2ccccc2)CC1)C12CC3CC(CC(C3)C1)C2,-0.9,0.16

# Copied from the list.
# Under AID504770, CCCCn1c(SCC(=O)Nc2ccccc2OC)nc2ccsc2c1=O is entered as -0.75
# Under AID504770, O=C(O)CNC(=S)N(Cc1ccco1)Cc1ccccc1Cl is entered as 1.5
# Under Ba CapD inh, Cc1csc2ncnc(N3CCN(C(=S)NCC4CC4)CC3)c12 is entered as 0.67

# Additional records:
SMILES,AID504770,Ba CapD inh
O=C(CN1CCOCC1)N1N=C(c2c(-c3ccccc3)c3cc(Cl)ccc3[nH]c2=O)CC1c1ccccc1 (stereo not drawn),.,0.11
CN(C1CCCCC1)S(=O)(=O)Cc1ccccc1,2.3,.
O=c1nc2n(c3ccsc13)CC(O)=C2c1nc2ccccc2[nH]1,0.2,.
COc1ccc2c(c1)C(C)(C)C1(C=Cc3cccc(OC)c3O1)N2C (stereo not drawn),.,-0.205
CCCCOc1ccccc1C1C(C(=O)OC)=CN(Cc2ccc(OC)c(OC)c2)C=C1C(=O)OC,.,0.6
CCOC(=O)CSC1=C(C#N)C(c2ccc(C(C)C)cc2)C2=C(CCCC2=O)N1 (stereo not drawn),-0.65,3.96
CCOC(=O)c1sc2nc(CSc3ccccc3)nc(Nc3ccn(C)n3)c2c1C,-0.6,.
Cc1oc(N)c(C#N)c1C,-1,0.37
O=C(Nc1ccc2c(c1)oc1ccccc12)c1cccc(N2C(=O)CCC2=O)c1,1.5,-1.05
O=C(CSCc1cnn(-c2ccccc2)c1-n1cccc1)NC1CCCCCC1,-0.6,-0.05
COc1ccc(NC(=O)C2C3C4CCC(C4)C23)cc1 (stereo not drawn),0.9,0.68
C=CC[n+]1c2n(c3ccc(F)c(F)c31)CCCCC2,-0.1,-0.38
CCCCCn1c(SCC(=O)Nc2ccc(OCC)cc2)nc2cc(C(=O)N3CCC(C(N)=O)CC3)ccc2c1=O,.,0.315
CCOc1ccc(C(=O)Nc2ccc(-c3nc4ncccc4o3)cc2)cc1,0.65,0.055
O=C1C2C3C=CC(C3)C2C(=O)N1c1ccc(O)cc1 (stereo not drawn),-0.1,0.635
CN(C)S(=O)(=O)Oc1ccccc1C(=O)Nc1ccccc1Cl,.,0.13
CCCCC#Cc1ccc(C(=O)O)o1,.,0.47
N#CCc1csc(-c2ccccc2)n1,0.05,.
Cc1cc(C)c(N=C(N)/N=C(\N)NN)c(C)c1,.,-0.245
CCCOC(=O)CSc1ncnc2sc(C)c(C)c12,-0.85,0.175
O=S(=O)(Nc1ccccc1)C(Nc1ccccc1)c1ccccc1F (stereo not drawn),0.7,0.485
O=C(Oc1ccc(C2NC(=O)c3c(sc4c3CCCC4)N2)cc1)c1ccccc1 (stereo not drawn),.,5.74
O=C(Nc1ccc(Nc2ccccc2)cc1)C1CC1,-0.55,0.23
COC(=O)c1c(C(=O)OC)c(-c2ccc(C(C)(C)C)cc2)n2c1CSC2,.,-0.375
CN(C)Cc1nnnn1CCn1nnnc1CN(C)C,-0.3,0.47

# An excerpt of these results, tab-delimited:
smiles	AID504770	Ba CapD inh
COc1ccc(NC(=O)C2C3C4CCC(C4)C23)cc1 (stereo not drawn)	0.9	0.68
O=S(=O)(Nc1ccccc1)C(Nc1ccccc1)c1ccccc1F (stereo not drawn)	0.7	0.485
O=C(Nc1ccc2c(c1)oc1ccccc12)c1cccc(N2C(=O)CCC2=O)c1	1.5	-1.05

# The list goes on.
SMILES,AID504770,Ba CapD inh
Cc1ccc(S(=O)(=O)N2CCCCC2C(=O)NCCOc2ccccc2)cc1 (stereo not drawn),0.55,.
COc1cc2c(cc1O)C1Cc3ccc(OC)c(O)c3CN1CC2 (stereo not drawn),.,0.06
CCCC(=O)Nc1c(C)nn(C(=O)CCC)c1C,0.35,.
CCN(CC)S(=O)(=O)c1cc(C(=O)OCC(=O)c2ccc3c(c2)NC(=O)CO3)ccc1Cl,0.25,.
CCOc1ccc2[nH]c(=O)c(C(c3nnnn3CCOC)N3CCCCC3)cc2c1 (stereo not drawn),-0.4,36
COC(=O)c1ccc2c(=O)n3nc(NCc4ccccc4)sc3nc2c1,-1.1,6.43
c1ccc2[nH]c(C3CCN(CC4OCCO4)CC3)nc2c1,-0.4,.
O=C(CSc1ncnc2c1cnn2-c1ccccc1)c1ccccc1,0.85,.
COc1cc(OC)c(NC(=O)c2sc3ncn(CC(=O)N4CC(C)CC(C)C4)c(=O)c3c2C)cc1Cl (stereo not drawn),.,0.7
CCCNC(=O)OCC12COC3c4ccccc4OC(C)(CC1C)C3C2C (stereo not drawn),.,0.12
O=c1ccoc2ccc(Cl)cc12,0.7,0.5
C=C(C)Cn1c(SCC(=O)OCC)nc2c(c1=O)C1(CCCCC1)Cc1ccccc1-2,.,-0.25
CCSc1nc2c(c(=O)[nH]1)C1(CCCC1)Cc1ccccc1-2,2.15,1
CN1CCN(S(=O)(=O)c2ccc3c(c2)C(=O)c2cc(S(=O)(=O)N4CCN(C)CC4)ccc2-3)CC1,.,-0.285
COc1cccc(NC2(c3nnnn3-c3ccccc3C)CCCC2)c1,.,-0.355
CCn1ncc(Cl)c1C(=O)NC(C)c1ccccc1 (stereo not drawn),1.75,-0.055
COc1ccc(-n2c(CNc3ccccc3Cl)nnc2SCC(N)=O)cc1,0.15,.
c1ccc2c(c1)Oc1ccccc1S2,-0.7,0.3
Nc1ccc(-c2nn[nH]n2)cc1F,-0.2,3.02
N#Cc1c(F)cccc1NCCO,-1.05,47.4
Cn1c(N)c(C(=O)COc2ccccc2Cl)c(=O)n(C)c1=O,-0.15,.
CCC1CC(C(F)(F)F)n2ncc(C(=O)O)c2N1 (stereo not drawn),0.05,.
O=C(Nc1ccc(S(=O)(=O)N2CCCCC2c2cccnc2)cc1)c1cccc(Cl)c1 (stereo not drawn),.,-0.07
CCOC(=O)c1cnn(CC2CCCCC2)c1N,-0.55,8.58
CC1CCCC(C)N1C(=O)c1scc2c1OCCO2 (stereo not drawn),-1.4,-0.445
# The results go on.
SMILES,AID504770,Ba CapD inh
Cc1nn(CCCC(=O)NC(C)C)c(=O)c2cc3sccc3n12,0.1,-0.115
CCCCOC(=O)c1ccc(NC(=O)CSc2nc3ccccc3n2C)cc1,.,0.055
O=S(=O)(Nc1ccc2c(c1)CCC2)c1cccs1,-0.2,0.23
CCN(CC)C(=O)c1ccc(NC(=O)CSC(C)(C)C)cc1,-0.3,.
NNC(=O)C1CCCN1S(=O)(=O)c1ccc(Cl)cc1 (stereo not drawn),-3.7,0.245
CCOc1ccc(NC(=O)CSc2nnc(NC(=O)CC34CC5CC(CC(C5)C3)C4)s2)cc1,.,-0.27
O=C(N/N=C/c1ccccc1O)c1ccc2ccccc2c1,.,-1.04
COCCCN1CCc2nc(SCC(=O)Nc3cccc(C(F)(F)F)c3)[nH]c(=O)c2C1,-0.8,16
O=C(O)CCc1nnc(-c2ccccc2)o1,0,.
CCN(CC)C(=O)CN1Cc2ccccc2C1=O,-0.55,-2.04
COc1ccc(-c2noc(CCCN3C(=O)c4ccccc4C3=O)n2)cc1,-0.3,0.015
Cc1ccc(-c2noc(CNC(C)C)n2)cc1,-0.9,.
COc1cc2nc(NCc3ccccc3)n3nc(-c4cccnc4)nc3c2cc1OC,-0.75,0.875
CC(C)(C)c1ccc(/C=C/C(=O)O)s1,-0.75,i
COC(=O)NC(Nc1ccccc1)C(=O)c1ccccc1 (stereo not drawn),-0.6,.
O=c1c(CSc2ccccn2)cc2cccc3c2n1CCC3,.,0.46
C=CCNCc1cc2cc(OCC)ccc2[nH]c1=O,-0.5,.
CCOC(=O)Nc1cccc2ccccc12,1.95,.
CC1(C)C2CCC3(C)OC(=O)N(N1c1ccccc1)C23C (stereo not drawn),-0.6,0.145
O=c1oc2ccccc2cc1-c1csc(N2N=C3/C(=C/c4ccccc4)CCCC3C2c2ccccc2)n1 (stereo not drawn),.,-0.275
COc1ccc(-c2noc(N3CCC(C(=O)N4CCN(c5ccccn5)CC4)CC3)n2)cc1,0.85,3.34
Cc1cc(=O)oc2cc(OC(=O)c3ccco3)ccc12,0.6,2.17
Nc1ncncc1-c1ccc(Cl)cc1,-1.2,0.285
OCCOCCN1CCN(Cc2ccc(Cl)cc2)CC1,-0.35,-0.255
CCOC(=O)c1c(OCCOC(=O)c2ccc(Cl)cc2)noc1N,.,0.185
# The list goes on:
SMILES,AID504770,Ba CapD inh
CCCCCCCCCCCCNC(=O)C1OC2OC(C)(C)OC2C2OC(C)(C)OC12 (stereo not drawn),.,-0.58
Cc1ccc2c(c1)C(N1CCCC1=O)CC(c1ccco1)N2 (stereo not drawn),0.25,-0.31
CCOC(=O)c1ccc(NC(=O)c2ccccc2OC(C)=O)cc1,0,0.38
Cn1c(SCC(=O)N(c2ccccc2)C2CCCCC2)nc2cc(S(N)(=O)=O)ccc21,-0.3,.
O=C(NCc1cc2ccccc2s1)C1CN(C(c2ccccc2)c2ccccc2)C1,-0.3,0.23
O=C(O)CSc1nnc2c(n1)OC1(CCCCC1)Nc1ccccc1-2,-0.95,-1
CCC1(CC)C(=O)c2cc3ccccc3cc2C1=O,-0.55,0.615
CCOC(=O)c1cn(C2CC2)c2c(F)c(F)c(F)cc2c1=O,-0.15,-0.075
CCc1nc2ccccc2c(C(=O)Nc2cccc(Cl)c2)c1C,-0.6,0.505
O=C(O)c1cnc2sc3ccccc3n2c1=O,.,7.8
N#C/C(=C\c1ccc(C#N)cc1)S(=O)(=O)c1ccccn1,0.45,0.205
CCCNS(=O)(=O)c1cccn1-c1ncc(C(F)(F)F)cc1Cl,.,0.375
Nc1ccccc1SCC(=O)Nc1ccccc1,-1.25,.
O=C(Cn1cnc2c(oc3ccccc32)c1=O)Nc1cccc(C(F)(F)F)c1,2.1,.
CC1(C(=O)O)CCC(c2nc3ccccc3[nH]2)C1(C)C (stereo not drawn),-0.5,0.67
Cc1ccn2nc(C(=O)OCC(=O)N(Cc3ccccc3)Cc3ccccc3)nc2n1,-0.8,.
NC(N)=NC(N)=Nc1ccc2c(c1)OCO2,.,-0.165
CC(C)(C)c1nc(SCc2nc(-c3cccc(-n4cccc4)c3)no2)n[nH]1,-1.15,9.78
CC1(C)SC(c2ccc(Cl)cc2Cl)NC1C(=O)O (stereo not drawn),-0.35,0.51
O=C(NCc1ccccc1)c1cc2c(s1)-c1ccccc1SC2,-0.35,0.07
C=CCNC(=O)c1cc2c(C)nn(-c3ccc(F)cc3)c2s1,0.4,.
CN(C)C(CNC(=O)Cc1c[nH]c2ccccc12)c1ccco1 (stereo not drawn),-0.6,.
Cc1c(N(CC(=O)NCc2ccccc2)S(=O)(=O)c2ccccc2)c(=O)n(-c2ccccc2)n1C,.,5.86
CNC(=S)C12CC3CC(CC(C3)C1)C2,0,0.39
COc1ccc(C(=O)OCC(=O)c2ccccc2)cc1,0.1,-0.18
OC(CN1CCCC1)Cn1ccc(C(F)(F)F)n1 (stereo not drawn),-1.05,-1.02

# Compound profiles, from the list above. Screens in order: AID504770, Ba CapD inh
# `O=C(NCc1cc2ccccc2s1)C1CN(C(c2ccccc2)c2ccccc2)C1` is listed with -0.3, 0.23
# `Cc1ccn2nc(C(=O)OCC(=O)N(Cc3ccccc3)Cc3ccccc3)nc2n1` is listed with -0.8, .
# `OC(CN1CCCC1)Cn1ccc(C(F)(F)F)n1` (stereo not drawn) is listed with -1.05, -1.02
# `CNC(=S)C12CC3CC(CC(C3)C1)C2` is listed with 0, 0.39
# `O=C(O)c1cnc2sc3ccccc3n2c1=O` is listed with ., 7.8

# Source: PubChem BioAssay

# Hits appear at their usual frequency; about 0.37% have a hit in one of these screens.
